Source: PubChem BioAssay
gsp antag = qHTS for Antagonists of gsp, the Etiologic Mutation Responsible for Fibrous Dysplasia/McCune-Albright Syndrome: qHTS; gsp-mutant cells, cAMP HTRF, 30 min; control for the full effect not named in the record; Potency, µM (top dose mostly 76.9 µM), inactives show at the highest dose activity change, negative = inhibition, most hits filed as inhibitors; 340,000 compounds, 0.4% hits; active = falling curve of any shape with a large fitted effect; inconclusive = falling curve, mostly with a smaller effect; inactive = flat or rising curve; cell line not stated here;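 note: intracellular cAMP measured with PDE inhibitor Ro 20-1724 present during compound exposure; potency is the fitted concentration of half-maximal effect; % is set by controls: 0 for no effect and ±100 for the full control effect; nearly all actives have a fitted effect of over 65% in size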
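Measurement of cellular cAMP by homogeneous time-resolved fluorescence following a 30 min compound exposure at 37C. The PDE inhibitor […] was present throughout; the assay buffer was DPBS with 0.05% BSA and 0.005% Tween 20.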
gsp ag = qHTS for Agonist of gsp, the Etiologic Mutation Responsible for Fibrous Dysplasia/McCune-Albright Syndrome: qHTS. 340,000 compounds, 0.13% hits. Potency, µM (titrated, usually from 76.9 µM), for inactives: top-dose activation (cAMP increase), hits mostly activators. gsp mutant cells, cAMP HTRF, 30 min; control for the full effect not named in the record; active = well fitted activation curve with a large enough effect; inconclusive = small, poorly fitted or top-dose-only effect, or another doubt; inactive = no such curve, though single readings can be large or run the other way; cell line not stated here;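 note: phosphodiesterase inhibitor Ro 20-1724 added with compounds to block cAMP breakdown; potency is the fitted concentration of half-maximal effect; nearly all actives have a fitted effect of over 60% in size; about a fifth of the inactives were tested at one dose only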
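Cells stably selected in G418 were plated at 2000/well, grown 16-24 hr, then given compounds in DMSO with the PDE inhibitor […] (300 uM solution added) for 30 min at 37C; cAMP was read by HTRF.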
Menin-MLL FL inh = qHTS Assay for Inhibitors Targeting the Menin-MLL Interaction in MLL Related Leukemias: Competition With Fluorescein Labeled MLL-derived Peptide. Fluorescence polarization, fluorescein-MLL peptide displacement from menin. FP activity change, % at 61.4 µM. 290,000 tested, under 10 active; inconclusive = falling polarisation curve, or a change in total fluorescence; inactive = total fluorescence flat and polarisation flat or rising; no compound was filed as active; the % refers to the polarisation; negative = inhibition;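 note: % of control where 0% means no effect; inhibitors lower the polarisation; unlabelled MLL peptide was the positive control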
Sfp inh = qHTS Assay for Inhibitors of Bacillus subtilis Sfp phosphopantetheinyl transferase (PPTase). 4'-phosphopantetheinyl transferase ffp (Bacillus subtilis), Q9F4F7. Biochemical Sfp PPTase activity, qHTS. Potency, µM, for inactives: max response, negative = inhibition, most hits filed as inhibitors. 310,000 compounds, 3.5% hits. AID 1490, 2009; active = well fitted inhibition curve with a large enough effect; inconclusive = small, poorly fitted or top-dose-only effect, or another doubt; inactive = no such curve, though single readings can be large or run the other way;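 note: the enzyme is Sfp with the accession as filed and its product quenches rhodamine fluorescence; potency is the fitted concentration of half-maximal effect; 0% = enzyme reaction without inhibitor and -100% = no enzyme wells; top concentration of the series not given in the record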
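Buffer: 50 mM Hepes-Na pH 7.6, 10 mM MgCl2, 0.01% Nonidet P-40, 0.01% BSA. Enzyme 15 nM, pre-exposed to compound 15 min; substrates then added and fluorescence change tracked over 30 min.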
ClpP mod = qHTS Assay for Activators of ClpP; ATP-dependent Clp protease proteolytic subunit (Bacillus subtilis (strain 168)), P80244; purified B. subtilis ClpP, FRET peptide cleavage, 20 min; Potency, µM (top dose mostly 57.5 µM), for the others: at the top dose activity change, negative = active; 340,000 compounds, 1.9% hits; AID 651965, 2013; active = well fitted falling curve with a large enough effect; inconclusive = small, poorly fitted or top-dose-only effect; inactive = no such curve, though single readings can be large or run the other way; note: potency is the fitted concentration of half-maximal effect; the source files actives as falling curves though it sought activators and does not explain the sign; nearly all actives have a fitted effect of over 65% in size; many hits overshoot -100%
Target sequence (P80244 whole entry, looked up): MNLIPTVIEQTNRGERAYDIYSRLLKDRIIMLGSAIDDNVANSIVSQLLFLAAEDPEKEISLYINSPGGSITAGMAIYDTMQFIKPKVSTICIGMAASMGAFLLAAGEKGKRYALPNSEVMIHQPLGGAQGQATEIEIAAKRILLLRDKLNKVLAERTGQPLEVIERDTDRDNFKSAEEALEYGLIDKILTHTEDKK
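FRET quenching reversal measured ClpP activation: 10 microg/mL B. subtilis ClpP at pH 8 with the FRET-FV decapeptide, read at 430 nm after 320 nm excitation. The 20-min minus 0-min signal was scaled between DMSO/no-enzyme wells and ADEP (5.8 microM final).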
D2 potentiator = Beta-Arrestin HTS for Positive Allosteric Modulators of the Human D2 Dopamine Receptor: Potentiators; D(2) dopamine receptor (Homo sapiens), P14416; DiscoveRx D2 beta-arrestin cells, luminescence, 90 min; 100% = 57 uM dopamine signal; potentiation, % (concentration not given with the values); 360,000 compounds, 0.23% hits; active = potentiation of 50% or more; inconclusive = 30% to 50%; inactive = 30% or less;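 note: tested on top of an EC20 dose of dopamine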
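PathHunter D2 cells, attached overnight at 37 deg C, received compound in DMSO plus dopamine at EC20 (50 nM final) for 90 min at 37 deg C. Beta-arrestin recruitment was read as luminescence after 1 h with detection reagent at ambient temperature.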
TRPV1 PAM = HTS Assay for Compounds that Act as Potentiators of the Vanilloid Receptor 1; 320,000 compounds, 0.02% hits; TRPV1-expressing cells, Fluo-8 calcium influx, capsaicin EC20 potentiation; host cell line not named in the record; control for the full effect not named in the record; Transient receptor potential cation channel subfamily V member 1 (Homo sapiens), Q8NER1; potentiation, % at 8.33 µM; AID 540277, 2011; active means potentiation above 80%; inconclusive means 30% to 80%; inactive means below 30%; note: 0% is about no effect
Target sequence (Q8NER1 whole entry, looked up): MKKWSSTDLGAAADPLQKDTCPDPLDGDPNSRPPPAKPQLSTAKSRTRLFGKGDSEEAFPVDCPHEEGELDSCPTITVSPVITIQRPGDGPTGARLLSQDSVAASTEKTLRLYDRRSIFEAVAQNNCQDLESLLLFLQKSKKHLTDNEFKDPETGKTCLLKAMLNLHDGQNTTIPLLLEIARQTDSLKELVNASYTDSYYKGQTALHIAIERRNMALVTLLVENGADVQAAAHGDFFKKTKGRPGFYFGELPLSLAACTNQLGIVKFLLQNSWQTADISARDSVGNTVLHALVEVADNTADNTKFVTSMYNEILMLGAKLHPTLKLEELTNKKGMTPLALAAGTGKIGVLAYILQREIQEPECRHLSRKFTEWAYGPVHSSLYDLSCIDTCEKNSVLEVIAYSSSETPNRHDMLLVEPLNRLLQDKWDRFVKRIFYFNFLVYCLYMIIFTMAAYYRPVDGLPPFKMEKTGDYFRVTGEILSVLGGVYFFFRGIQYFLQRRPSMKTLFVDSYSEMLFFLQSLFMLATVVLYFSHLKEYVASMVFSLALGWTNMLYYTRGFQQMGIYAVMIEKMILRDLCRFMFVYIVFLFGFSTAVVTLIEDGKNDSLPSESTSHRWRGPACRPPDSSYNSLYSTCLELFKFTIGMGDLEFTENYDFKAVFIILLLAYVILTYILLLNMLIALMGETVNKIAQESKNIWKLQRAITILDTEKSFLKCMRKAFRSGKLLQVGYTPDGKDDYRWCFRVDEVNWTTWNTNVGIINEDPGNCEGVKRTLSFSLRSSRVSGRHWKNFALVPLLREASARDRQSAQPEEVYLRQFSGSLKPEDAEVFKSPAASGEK
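Fluo-8 calcium influx in TRPV1-expressing cells, kinetic read (ex 480/em 520 nm). Compound added and read 3 min for agonist activity, followed by capsaicin at EC20 final and 2 min further read for enhancement.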
The depositor's hits bear a star; ? = inconclusive; . = no result given; & = joins results of further samples; [ ] = remark or other dose. Rows were taken by chance; 5.1% or so of the library scored in one or more.

SMILES | gsp antag | gsp ag | Menin-MLL FL inh | Sfp inh | ClpP mod | D2 potentiator | TRPV1 PAM
O=C(NCc1ccccc1)c1nc2c(nnn2Cc2cccc(Cl)c2)c(=O)[nH]1 | -10.6% | -12.0% | 1.4 | 10.4% | -0.3% | 1.5 | 7.6
CCS(=O)(=O)c1ccc(O)c(NC(=O)COc2ccc(C)cc2)c1 | 0.0% | 0.0%[15.4 µM] | -2.0 | 11.8% | 0.4% | 1.0 | 12.2
COc1ccc2c(CSc3nnc(-c4cccnc4)n3-c3ccccc3F)cc(=O)oc2c1 | -0.7% | 7.5% | 3.4 | -1.8% | -10.1% | 1.7 | 1.9
O=[n+]1c2c(n([O-])c3cc(Br)ccc31)CCCC2 | 5.8% | 10.7%[15.4 µM] | -0.8 | 13.2% | -2.6% | 7.3 | 6.5
OC1(c2ccc(F)cc2)CN(c2ccccc2)C2=[N+]1CCS2 (stereo unspecified) | -18.4% | 18.3% | -0.7 | -10.0% | -11.9% | -10.3 | -8.9
O=C1NC2(CCCC2)C(=O)N1Cc1cc(=O)n2ccsc2n1 | 12.5% | -14.1%[15.4 µM] | -11.2 | 15.6% | . | 1.1 | -5.9
N#Cc1ccc(-c2csc(NC(=O)c3cc(-c4cccs4)nc4ccccc34)n2)cc1 | -0.4% | -26.1% | 1.1 | 8.4% | -14.0% | -2.9 | -6.5
CCOC(=O)c1cc(-c2ccccc2)nc2ccc(C)cc12 | -13.9% | -10.5% | -1.8&0.7 | ? | 0.9% | -17.5 | 10.4
Oc1ccc(Nc2nc(Cl)nc(NCc3ccco3)n2)cc1 | 25.0% | 8.1% | 6.5 | 14.3% | -3.9% | -7.4 | 3.2
Cc1ccc(C(=O)C2(C)C3c4cc(Br)ccc4OC(=O)C32C(=O)c2ccco2)cc1 (stereo unspecified) | ? | -13.9% | 4.1 | 11.1% | 1.5% | -4.2 | 0.6
O=C1C=C(c2ccc(Cl)c(C(F)(F)F)c2)C[C@@H](c2ccc(Cl)cc2)C1 | -3.4% | . | . | . | 1.2% | 1.0 | 10.2
NC(=O)COC(=O)CCCc1c[nH]c2ccccc12 | -2.4% | 6.1% | 2.0 | 11.3% | -16.6% | 5.0 | -5.8
CCc1ccc(NC2=NCC(=O)N2Cc2ccc3c(c2)OCO3)cc1 | -12.2% | -1.2% | 1.5 | 0.2% | 0.1% | -4.0 | -31.5
COc1ccc(NC(=O)Cn2nnc(-c3ccccc3N)n2)cc1OC | 2.3% | -31.3%[inhibitor] | 0.4 | -0.9% | 0.2% | 5.8 | 2.6
Cc1ccc(Nc2nc3ccccc3c(=O)s2)cc1 | -1.4% | -114.7%[inhibitor] | 3.5 | 18.1% | -3.2% | -7.7 | 3.0
CC(Oc1ccccc1)C(=O)N1CCN=C1SCc1ccc(F)cc1 (stereo unspecified) | -8.4% | -19.0% | -1.6 | -9.4% | 0.1% | -17.2 | -14.7
CC1(C(=O)NNC(=S)NCc2ccco2)CC1(Cl)Cl (stereo unspecified) | 5.4% | 14.2% | 0.2 | 22.9% | -0.6% | -0.5 | 2.2
O=C(Nc1ccc(F)cc1)c1ccccc1NS(=O)(=O)N1CCCC1 | -12.9% | 19.4%[15.4 µM] | -1.1 | 1.4% | . | -10.5 | 2.0
C=Cn1cc[n+](CC(=O)c2ccc(Cl)cc2)c1 | 6.7% | -0.4%[15.4 µM] | -5.6 | -3.5% | -13.4% | -7.3 | 2.1
NC1(C#Cc2ccc3oc(=O)c(-n4cc(-c5ccsc5)nn4)cc3c2)CCCCC1 | 0.0% | . | . | . | -3.1% | -9.2 | 3.6
CCO[C@H]1OC(C(=O)N2CCN(Cc3ccccc3)CC2)=C[C@@H](C2CCCCC2)[C@@H]1CCCO | -13.9% | . | -1.7 | -10.6% | 2.6% | -39.7 | 8.7
CCOC(=O)N1CCC(NC(=O)c2cc3ccccn3n2)CC1 | -2.5% | -71.5%[inhibitor] | 0.1 | 14.3% | 4.3% | -5.4 | 8.1
COc1cc(-c2nc3n(c(=O)c2C#N)CCS3)cc(OC)c1OC | -10.3% | -27.0% | -4.2 | 14.8% | . | 0.3 | 7.0
Cc1c(NC(=O)c2cc(-c3ccccc3)nc3ccccc23)c(=O)n(-c2ccccc2)n1C | -8.2% | -15.3% | . | . | 1.1% | -8.7 | .
O=C(Nc1cccc(S(=O)(=O)N2CCOCC2)c1)c1ccc2c(=O)n3c(nc2c1)CCCCC3 | -17.7% | -13.8%[15.4 µM] | -0.7 | 11.6% | -25.3% | 5.1 | -11.6
COc1ccc(-c2cn3ccccc3n2)cc1[N+](=O)[O-] | -3.2% | 0.0%[15.4 µM] | 4.7 | 1.9% | . | 5.5 | 11.1
CC(CNC(=O)CCC(=O)N1CCOc2ccc(Cl)cc21)c1ccccc1 (stereo unspecified) | -16.1% | ? | -5.6 | 4.4% | -2.6% | -5.9 | 25.6
COC(=O)C(NC(=O)c1ccc(OC)cc1)(Nc1ncc(S(=O)(=O)c2ccc([N+](=O)[O-])cc2)s1)C(F)(F)F (stereo unspecified) | -7.9% | -15.9% | 3.5 | 4.8% | -3.5% | 65.4* | 9.5
CC(OC(=O)c1cccnc1SCc1cc(=O)n2ccccc2n1)c1ccccn1 (stereo unspecified) | -10.7% | 11.2% | 2.7 | 13.4% | -23.2% | -5.3 | 2.6
O=C(CSc1nc2c(c(=O)n1-c1ccc(F)cc1)SCC2)NCC1CCCO1 (stereo unspecified) | 4.2% | -25.5% | 5.2 | 1.6% | -1.4% | -17.4 | 11.3

Next part; the last 2 above are carried over.
SMILES | gsp antag | gsp ag | Menin-MLL FL inh | Sfp inh | ClpP mod | D2 potentiator | TRPV1 PAM
CC(OC(=O)c1cccnc1SCc1cc(=O)n2ccccc2n1)c1ccccn1 (stereo unspecified) | -10.7% | 11.2% | 2.7 | 13.4% | -23.2% | -5.3 | 2.6
O=C(CSc1nc2c(c(=O)n1-c1ccc(F)cc1)SCC2)NCC1CCCO1 (stereo unspecified) | 4.2% | -25.5% | 5.2 | 1.6% | -1.4% | -17.4 | 11.3
O=C(Cn1cncn1)N/N=C/c1cccc2ccccc12 | -3.1% | -47.6%[inhibitor] | -2.0 | 23.4% | -10.6% | -10.7 | 1.7
CSc1cccc(NC(=O)C2(S(=O)(=O)c3ccc(C)cc3)CC2)c1 | -5.4% | -13.9%[15.4 µM] | 4.1 | -0.1% | . | -11.1 | 12.0
NC(=O)c1c(NC(=O)CSc2nc3c(c(C(F)(F)F)n2)CCc2ccccc2-3)sc2c1CCCC2 | 6.8% | -2.2% | -0.1 | 10.6% | 0.3% | -2.6 | 5.8
Cc1c(C(=O)NN)nn(-c2ccc(Cl)cc2)c(=O)c1C#N | 2.1% | 2.7%[15.4 µM] | 0.6 | 6.7% | -1.1% | 7.3 | 11.9
O=C(NCCc1cn2ccccc2n1)c1ccc(Br)o1 | 4.1% | 29.5% | -2.0 | 4.7% | ? | -18.0 | 7.9
COC(=O)CCCC1=CC2=CC(=O)C(C)(OC(=O)c3cccs3)C(=O)C2=CN1CCN1CCOCC1 (stereo unspecified) | ? | . | ? | 8.2% | 0.6% | 3.8 | -32.7
COC(=O)[C@@]1(Cc2ccc(OC)cc2)[C@@H]2[C@@H](CC(=O)[C@H]2CC(=O)C(=O)N(C)C)CN1C(=O)c1ccccc1 | -5.6% | -13.3% | 6.1&1.8 | -1.3%&25.4% | 1.2% | -24.6 | 0.5
CC1=Nc2cc(C(=O)N3CCCC3)ccc2Sc2ccc(C)cc21 | 4.0% | -5.1% | -0.4 | -1.6% | 0.0% | -0.7 | 0.5
O=C(NCC1CCCO1)c1c(O)c2cccc3c2n(c1=O)CC3 (stereo unspecified) | 3.4% | 30.8% | 3.8 | 7.0% | -29.4% | -3.4 | -3.4
CCn1c(Sc2nc(C)nc3scc(-c4cccs4)c23)n[nH]c1=O | -2.0% | -18.8% | 3.0 | 1.2% | -0.4% | -2.5 | -6.4
Cc1ccc(C=Nc2cc([N+](=O)[O-])ccc2C)s1 | -2.3% | -38.4%[inhibitor] | 3.1 | -8.8% | -3.0% | -20.3 | -3.9
COc1ccccc1N(CC(=O)NC1CCCCC1)S(C)(=O)=O | -4.4% | -35.7% | 2.1 | -0.9% | -0.1% | 5.2 | ?
CCOCCCNC(=O)C(NC(=O)c1ccccn1)c1ccc(C)cc1 (stereo unspecified) | 1.3% | -39.2%[inhibitor] | 3.7 | -3.8% | 1.6% | 4.1 | -25.7
COc1ccc(-n2nc([N+](=O)[O-])c(=NCCc3ccccc3)n2O)cc1 | 12.4% | 1.3% | 4.3 | -2.8% | 0.6% | 131.2* | -4.9
CC(C)=CCCC(C)CCO (stereo unspecified) | 8.1% | . | 2.4 | -7.1% | -2.2% | -27.9 | .
CCN(c1ccccc1)S(=O)(=O)c1ccc(NC(=O)c2ccco2)cc1 | -23.1% | 1.9%[15.4 µM] | 0.3 | 0.9% | . | 2.1 | -10.6
COc1cccc(CC2(CO)CCCN(Cc3cn(C)c4ccccc34)C2)c1 (stereo unspecified) | 5.0% | 1.0% | -8.4 | -1.1% | -2.5% | -21.1 | 11.8
O=C1c2ccccc2CCC12OC2c1ccc([N+](=O)[O-])cc1 (stereo unspecified) | . | ? | . | . | 1.8% | -6.7 | .
Cc1nn(-c2cc(N3CCCC3)ccc2[N+](=O)[O-])c(=O)c2ccccc12 | -12.3% | 0.0% | 4.0 | -4.3% | 1.6% | -8.3 | 15.8
